Source: PubChem BioAssay (several laboratories)
Mtb growth: M. tuberculosis H37Rv growth inhibitors, H37Rv strain (AID 1626); M. tuberculosis H37Rv growth inhibition; higher % means a stronger effect; inhibition, % at 10 µM; hits with a dose series show IC50 in µM; hit rate 0.95% among 220,000;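 active = confirmed in a dose series; inconclusive = inhibition above 80% but not taken into the dose series; inactive = below 80% or under 30% at every dose of the series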;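 also: bacteria incubated seven days before Alamar blue readout; 0% = bacteria only wells and 100% = bacteria with antibiotic wells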
Arbovirus anti: antivirals against arbovirus infection, primary screen, cell-based, full library, 10K replicate subset; inhibition, % at 10 µM; AID 1251, 2008; arbovirus infection cell-based antiviral screen; hit rate 0.37% among 200,000;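 active = inhibition from about 30%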;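 also: bluetongue infection of BSR cells; cell survival read as ATP light after 72 h; 0% = infected wells without compound and 100% = uninfected wells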
YopH inh: YopH tyrosine phosphatase inhibitors, primary screen, biochemical, fluorescence Ex485/Em525 | YopH tyrosine phosphatase [Yersinia enterocolitica] | inhibition, %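 (about 10 µM by stock and volumes)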 | hit rate 0.16% among 140,000 | AID 898, 2007;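 active = inhibition of 50% or more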;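 also: controls were vehicle for no effect and minimum signal wells for full effect; inactives centre near -20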
RecA splice inh: Mtb RecA intein splicing inhibitors, primary screen, biochemical, fluorescence, HTS; cell-free RecA intein splicing; inhibition, %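 (about 9 µM by stock and volumes)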; hit rate 0.75% among 290,000; AID 2221, 2009; Protein RecA (Mycobacterium tuberculosis (strain ATCC 25618 / H37Rv)), P9WHJ3; in the data active = inhibition above about 30%; inconclusive = no clear call, values can overlap the other calls;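 also: 0% = vehicle wells and 100% = reference inhibitor control wells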
Target sequence (P9WHJ3 whole entry, looked up, canonical isoform): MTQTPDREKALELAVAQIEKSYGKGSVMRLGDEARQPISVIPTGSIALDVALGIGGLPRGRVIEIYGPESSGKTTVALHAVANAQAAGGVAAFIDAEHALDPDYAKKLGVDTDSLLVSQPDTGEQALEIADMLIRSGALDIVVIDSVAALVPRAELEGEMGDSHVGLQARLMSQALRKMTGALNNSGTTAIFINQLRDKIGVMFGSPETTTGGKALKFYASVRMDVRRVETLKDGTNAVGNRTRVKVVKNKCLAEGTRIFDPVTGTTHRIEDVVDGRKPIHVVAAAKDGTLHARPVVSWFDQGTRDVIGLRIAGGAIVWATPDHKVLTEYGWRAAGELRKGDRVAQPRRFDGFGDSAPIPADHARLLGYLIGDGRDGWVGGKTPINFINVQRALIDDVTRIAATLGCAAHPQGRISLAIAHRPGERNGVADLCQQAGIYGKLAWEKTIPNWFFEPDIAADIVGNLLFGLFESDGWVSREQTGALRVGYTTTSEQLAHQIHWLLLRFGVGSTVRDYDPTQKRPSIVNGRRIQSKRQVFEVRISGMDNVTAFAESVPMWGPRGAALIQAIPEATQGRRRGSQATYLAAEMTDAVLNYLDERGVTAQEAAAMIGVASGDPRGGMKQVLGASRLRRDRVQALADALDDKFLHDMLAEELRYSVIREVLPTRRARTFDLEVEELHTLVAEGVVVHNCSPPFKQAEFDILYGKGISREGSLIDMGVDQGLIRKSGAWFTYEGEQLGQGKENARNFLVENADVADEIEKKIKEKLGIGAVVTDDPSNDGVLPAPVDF
Mtb betalactam: beta-lactam sensitization of Mtb H37Rv, H37Rv | M. tuberculosis H37Rv growth with meropenem, percent inhibition; hits of this screen are not shown here | inhibition, % at 25 µM | hit rate 0.27% among 330,000;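 active = about 74% or more and at least 40 points above the plate without the antibiotic, then above 30% in a dose series; inconclusive = first-round hits that could not be retested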;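 also: growth measured after seven days incubation then overnight dye step; 0% = bacteria only wells and 100% = bacteria with antibiotic; twin plates without the antibiotic show which effects depend on it; some results filed as inactive read as strong as hits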
Arbovirus anti repeat: further read-out of Arbovirus anti, marked with its call; inhibition, %; measured here: 10K subset replicate screen; many hits read low in the repeat;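 first of two repeat runs on a subset; 0% = infected and 100% = uninfected wells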
Active calls of the source: *; ? = inconclusive; nt = not tested or not shown.

SMILES	Mtb growth	Arbovirus anti	YopH inh	RecA splice inh	Mtb betalactam	others
CC1O[C@@H]2O[C@](O[C@H](C)CC[C@@H](C)O)(c3ccccc3)O[C@@H]2C[C@H]1O (stereo not given in full)	nt	nt	nt	1.4	3.6
CC(=O)Nc1ccc(Nc2c3ccccc3nc3ccccc23)cc1	5.3%	-28.1	nt	7.0	-5.7
COc1cccc(CNC(=O)CN(C)S(=O)(=O)c2ccc3c(c2)CC(C)N3C(C)=O)c1 (stereo not given)	nt	nt	nt	-0.8	-6.1
O=C(Nc1ncc2c(n1)-c1ccccc1CC2)c1ccccc1	0.6%	-5.2	-15.3	-0.1	0.4
O=C(Cc1ccccc1)NCC(=O)Nc1cccc(Br)c1	5.0%	-8.6	nt	0.9	1.2
O=c1[nH]cccc1-c1nc2ccccc2n1Cc1ccc(F)cc1	nt	nt	nt	0.6	4.6
COCCCNc1nc2ccccc2nc1NS(=O)(=O)c1cccc(C)c1	nt	nt	nt	-2.4	?
CCN(CC)c1ccc(CNc2ccc(Br)cn2)cc1	-1.9%	3.6	-22.3	0.8	-6.3
CCCc1nnc(NS(=O)(=O)c2ccccc2)s1	nt	nt	nt	-3.1	0.8
CCOC(=O)c1cccc(C(=O)OCC)n1	nt	3.0	-28.9	0.2	-6.0
CCOC(=O)c1c(O)c2cc(Cl)ccc2n(CC)c1=O	6.7%	nt	nt	-3.7	-9.9
CS(=O)(=O)N1CCc2cc(C(=O)N3CCCC3)ccc21	-2.8%	5.7	nt	3.5	-7.6
O=C(O)C1CCCN1S(=O)(=O)c1ccc2ccccc2c1 (stereo not given)	0.2%	5.2	-26.7	nt	8.2
COc1ccc2[nH]c(C(=O)N3CCC(n4nccc4NC(=O)C4CC4)CC3)c(C)c2c1	nt	nt	nt	0.7	-3.0
CN1CC(=O)N(CC(=O)Nc2cccc(S(=O)(=O)N3CCOCC3)c2)C1=O	6.0%	2.4	nt	-6.0	-4.0
COc1ccc(C2COc3cc(O)ccc3C2)c(OC)c1O (stereo not given)	1.8%	nt	nt	-3.5	-0.5
O=C(Nc1cccc([N+](=O)[O-])c1)c1ccc2nsnc2c1	nt	nt	nt	1.3	-22.0
O=C(Nc1nnc(CCN2CCOCC2)s1)c1ccccc1	-5.1%	4.8	-4.7	1.4	3.2
CCOC(=O)c1c(C)nc2ccccc2c1C	-12.2%	-1.1	-19.0	0.4	-4.3
COc1cc(OC)c(NC(=O)c2sc3ncn(CC(=O)N4CCN(c5ccccn5)CC4)c(=O)c3c2C)cc1Cl	nt	nt	nt	-0.3	-0.9
COC(=O)c1ccc(N2CCN(S(=O)(=O)c3ccc(C)cc3)CC2)c([N+](=O)[O-])c1	-2.2%	10.1	-18.8	2.0	?
COc1ccccc1/C=N/NC(=O)c1cc2c(OC)c(OC)ccc2[nH]1	nt	nt	nt	-4.4	4.6
CN(C)c1ccnc(-n2cccc2/C=N/OCc2ccc(F)cc2Cl)c1C#N	8.5%	12.6	-6.9	1.9	7.2
CCOc1ccc(NC(=O)c2ccc(Cn3nc(C)cc3C)o2)cc1	nt	nt	nt	1.5	63.0
O=C(CCS(=O)(=O)c1ccc(Cl)cc1)NCCN1C(=O)S/C(=C\c2ccccc2F)C1=O	-2.1%	3.0	-47.4	3.1	-7.3
Cc1cc(=O)[nH]c(Nc2cccc(Br)c2)n1	nt	nt	nt	4.7	-10.1
CCn1c(SCCN2CCOCC2)nc2c1c(=O)n(C)c(=O)n2C	nt	nt	nt	0.3	-0.6
CC1(C)CC(=O)C2=C(C1)OC(N)=C(C#N)C2c1ccc[nH]1 (stereo not given)	4.0%	8.2	nt	0.4	15.8
NS(=O)(=O)c1ccc(-c2ccc(/C=C3\NC(=S)NC3=O)o2)cc1	nt	nt	nt	-3.2	66.5
CCC(CC)C(=O)Nc1cccc(C(=O)c2ccccc2)c1	-6.0%	-3.8	-3.8	2.0	1.5
COc1cc(C(=O)N/C(=C\c2cn(C)c3ccccc23)C(=O)N2CCOCC2)cc(OC)c1OC	nt	nt	nt	-1.3	6.4
Cc1nc2sc3c(c2c(=O)n1/N=C/c1cccnc1)CCCC3	-1.0%	-9.5	nt	-0.8	55.4
Cc1ccccc1NC(=S)NCC1CCC(CNC(=S)Nc2ccccc2C)CC1 (stereo not given)	6.7%	nt	nt	0.5	1.1
CN(C)c1ccc(NC(=O)c2cccc(N3C(=O)C4C5C=CC(C5)C4C3=O)c2)cc1 (stereo not given)	-0.4%	6.4	-37.4	-3.0	7.9
COc1cccc(N2CCN(Cc3nc(N)nc(N4CCCc5ccccc54)n3)CC2)c1	78.3%	3.4	-16.5	-0.7	73.1
O=C(CCS(=O)(=O)c1cccc2nsnc12)N1CCN(Cc2ccc3c(c2)OCO3)CC1	-1.6%	0.3	-73.5	-0.6	-8.9
CC(C)c1cc(CNC(=O)c2ccc(OC3CCN(Cc4ccccn4)CC3)cc2)on1	nt	nt	nt	1.2	-1.2
COc1ccccc1/C=C1/SC(=S)N(CCC(=O)Nc2cccnc2)C1=O	nt	nt	nt	-0.4	-6.8
CS(=O)(=O)N1CCC(C(=O)NCc2ccccc2)CC1	-1.3%	3.6	nt	0.9	-9.3
COc1cc(NC(=O)C2CC(c3ccccc3Cl)=NO2)cc(OC)c1OC (stereo not given)	nt	nt	nt	0.1	4.5
C[C@H](NC(=O)[C@H](Cc1ccccc1)n1c(=O)[nH]c2ccccc2c1=O)C(=O)N1CCC(C(=O)O)CC1	nt	nt	nt	0.3	-0.1
CCC(C)[C@H](NC(=O)N1CCn2c1nc1ccccc12)C(=O)NCc1ccc(OC)cc1 (stereo not given in full)	nt	nt	nt	2.1	12.1
CS(=O)(=O)CCC(C(=O)Nc1ccc2c(c1)OCO2)N1Cc2ccccc2C1=O (stereo not given)	nt	nt	nt	1.2	-1.9
CCOC(=O)C1CCCN(c2nnnn2-c2ccccc2)C1 (stereo not given)	nt	-2.9	-23.2	3.7	-0.1
CCn1c(SCC(=O)N/N=C/C=C/c2ccco2)nc2ccccc21	-5.7%	-2.0	-17.2	17.9	4.8
CC(=O)c1ccc(C(=O)N2CCC(n3nccc3NC(=O)C3CC3)CC2)cc1	nt	nt	nt	-0.3	-1.4
COc1ccc(F)c(CN2CCC(N3CCC(C(=O)N4CCOCC4)CC3)CC2)c1	0.5%	0.7	nt	-2.2	0.7
CC(C)(C)C(=O)N1N=C(c2cccc(NS(C)(=O)=O)c2)CC1c1cccs1 (stereo not given)	-4.6%	7.7	nt	4.1	7.0
Cc1ccc(-c2c(C(=O)N/N=C/c3ccsc3)nnn2-c2nonc2N)cc1	nt	nt	nt	-2.9	3.6
CCN(CC)S(=O)(=O)c1cccc(NC(=O)/C=C/c2cccc([N+](=O)[O-])c2)c1	11.8%	18.0	-8.0	0.1	-0.1
Cc1ccnc(NS(=O)(=O)c2ccc(NC(=O)c3ccccc3F)cc2)n1	nt	nt	nt	-4.1	-5.0
O=C(NNS(=O)(=O)c1ccc(F)cc1)C1CCCCC1	nt	nt	nt	-1.3	-2.1
CN(CCC#N)C(=O)COC(=O)[C@H](Cc1ccccc1)N1C(=O)c2ccccc2C1=O	nt	nt	nt	1.1	1.6
COc1ccc(C(=O)NC(C)c2nccs2)cc1OC1CCN(C(C)C)CC1 (stereo not given)	nt	nt	nt	0.3	-3.6
Cc1cc(C)c(S(=O)(=O)NCC(CCC(=O)O)C(F)(F)F)c(C)c1 (stereo not given)	6.7%	3.9	nt	-0.1	-7.0
Cc1ccc(NC(=O)c2ccc(C)c(NC3=NC4CS(=O)(=O)CC4S3)c2)cc1C (stereo not given)	nt	nt	nt	-2.9	-0.9
C=CCOc1ccc(/C(O)=C2/C(=O)C(=O)N(CCCn3ccnc3)C2c2cccs2)cc1 (stereo not given)	-7.0%	-5.7	-29.1	3.5	-7.3	Arbovirus anti repeat=6.2
Nc1ccc(S(=O)(=O)NCC(=O)OCCOc2ccccc2)cc1[N+](=O)[O-]	nt	nt	nt	-2.1	-0.6
Cc1[nH]c2ccccc2c1/C=N/NC(=O)c1cccc([N+](=O)[O-])c1	nt	-2.8	nt	0.3	-6.2
CC1CCN(S(=O)(=O)c2ccc(C(=O)N(C)C3CCS(=O)(=O)C3)cc2)CC1 (stereo not given)	nt	nt	nt	0.7	-1.2

Gathered by group: the entries above with an aryl thioether with sulfur outside any ring
SMILES	Mtb growth	Arbovirus anti	YopH inh	RecA splice inh	Mtb betalactam	others
CCn1c(SCCN2CCOCC2)nc2c1c(=O)n(C)c(=O)n2C	nt	nt	nt	0.3	-0.6
CCn1c(SCC(=O)N/N=C/C=C/c2ccco2)nc2ccccc21	-5.7%	-2.0	-17.2	17.9	4.8

Following part
SMILES	Mtb growth	Arbovirus anti	YopH inh	RecA splice inh	Mtb betalactam	others
CC(C(=O)OCC(=O)Nc1ncc(Cl)cc1Cl)N1C(=O)c2ccccc2C1=O (stereo not given)	-5.5%	0.8	-7.5	nt	-21.1
COc1ccc(N2CCN(CC(=O)NCc3ccccc3)CC2)cc1	6.0%	-5.7	nt	-4.1	-3.3
COc1cc2c(cc1OC)C1(Nc3c-2c(-c2ccccc2)nn3-c2ccccc2)C(=O)Nc2ccccc21 (stereo not given)	7.21µM*	16.4	-25.0	3.4	99.8
Cc1ccc(C2(C(F)(F)F)N=C3Sc4cc(C)cc(C)c4N3C(=O)N2)cc1 (stereo not given)	-0.4%	2.8	-2.5	nt	-1.9
CCc1ccc(N2C(=O)NC(=O)/C(=C\c3cc(C)n(-c4cc(C(=O)O)cc(C(=O)O)c4)c3C)C2=O)cc1	nt	nt	nt	-3.6	3.4
CCCOc1ccc(C2/C(=C(/O)c3ccc(F)cc3)C(=O)C(=O)N2CCCN(C)C)cc1 (stereo not given)	4.8%	3.4	34.3	2.1	4.2
CC(=O)N1c2ccc(S(=O)(=O)NCCC(=O)NCc3ccc(F)cc3)cc2CC1C (stereo not given)	nt	nt	nt	-1.2	-0.9
CCCN(CCC)CCNC(=O)CN1C(=O)COc2ccc(S(=O)(=O)N3CCOCC3)cc21	nt	nt	nt	2.9	1.8
Cc1onc(-c2ccccc2Cl)c1C(=O)NNC(=O)c1cccc(F)c1	nt	nt	nt	-2.0	-14.9
CC(=O)Nc1ccc(NC(=O)CSc2nccn2Cc2ccc(Cl)cc2)cc1	nt	nt	nt	-1.1	-0.7
Cc1ccc(-c2nc(C3CCCN(S(=O)(=O)c4ccc(C(F)(F)F)cc4)C3)no2)cc1 (stereo not given)	1.5%	-3.2	-33.8	-1.1	-7.9
CCN1CCN(CCn2c(=S)[nH]c3cc4c(cc3c2=O)OCO4)CC1	-1.5%	7.9	-14.7	-4.2	-17.3

Molecules listed so far with an aryl methoxy group:
SMILES	Mtb growth	Arbovirus anti	YopH inh	RecA splice inh	Mtb betalactam	others
COc1cccc(CNC(=O)CN(C)S(=O)(=O)c2ccc3c(c2)CC(C)N3C(C)=O)c1 (stereo not given)	nt	nt	nt	-0.8	-6.1
COc1ccc2[nH]c(C(=O)N3CCC(n4nccc4NC(=O)C4CC4)CC3)c(C)c2c1	nt	nt	nt	0.7	-3.0
COc1ccc(C2COc3cc(O)ccc3C2)c(OC)c1O (stereo not given)	1.8%	nt	nt	-3.5	-0.5
COc1cc(OC)c(NC(=O)c2sc3ncn(CC(=O)N4CCN(c5ccccn5)CC4)c(=O)c3c2C)cc1Cl	nt	nt	nt	-0.3	-0.9
COc1ccccc1/C=N/NC(=O)c1cc2c(OC)c(OC)ccc2[nH]1	nt	nt	nt	-4.4	4.6
COc1cc(C(=O)N/C(=C\c2cn(C)c3ccccc23)C(=O)N2CCOCC2)cc(OC)c1OC	nt	nt	nt	-1.3	6.4
COc1cccc(N2CCN(Cc3nc(N)nc(N4CCCc5ccccc54)n3)CC2)c1	78.3%	3.4	-16.5	-0.7	73.1
COc1ccccc1/C=C1/SC(=S)N(CCC(=O)Nc2cccnc2)C1=O	nt	nt	nt	-0.4	-6.8
COc1cc(NC(=O)C2CC(c3ccccc3Cl)=NO2)cc(OC)c1OC (stereo not given)	nt	nt	nt	0.1	4.5
CCC(C)[C@H](NC(=O)N1CCn2c1nc1ccccc12)C(=O)NCc1ccc(OC)cc1 (stereo not given in full)	nt	nt	nt	2.1	12.1
COc1ccc(F)c(CN2CCC(N3CCC(C(=O)N4CCOCC4)CC3)CC2)c1	0.5%	0.7	nt	-2.2	0.7
COc1ccc(C(=O)NC(C)c2nccs2)cc1OC1CCN(C(C)C)CC1 (stereo not given)	nt	nt	nt	0.3	-3.6
COc1ccc(N2CCN(CC(=O)NCc3ccccc3)CC2)cc1	6.0%	-5.7	nt	-4.1	-3.3
COc1cc2c(cc1OC)C1(Nc3c-2c(-c2ccccc2)nn3-c2ccccc2)C(=O)Nc2ccccc21 (stereo not given)	7.21µM*	16.4	-25.0	3.4	99.8

The list is partial, so the mix of outcomes need not match the whole.
